# From PubChem BioAssay
# GIV Gai3 FP: inhibitors of GIV peptide binding to Galpha-i3, primary screen, biochemical, fluorescence polarization, FITC-GIV GBA peptide, rat Galphai3; percent of control (FP), % (test concentration not listed); AID 1224905, 2016; 90 min; hits give low values; scaled: aluminum fluoride 0%, vehicle 100%; Guanine nucleotide-binding protein G(i) subunit alpha-3 (Rattus norvegicus), P08753; 0.42% of 210,000 active;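 active means replicate mean at 85% of control or lower, very high polarization wells dropped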;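 further: wells of about 15 µL received 100 nL stock; the first replicate is given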
# Target sequence (P08753 whole entry, looked up): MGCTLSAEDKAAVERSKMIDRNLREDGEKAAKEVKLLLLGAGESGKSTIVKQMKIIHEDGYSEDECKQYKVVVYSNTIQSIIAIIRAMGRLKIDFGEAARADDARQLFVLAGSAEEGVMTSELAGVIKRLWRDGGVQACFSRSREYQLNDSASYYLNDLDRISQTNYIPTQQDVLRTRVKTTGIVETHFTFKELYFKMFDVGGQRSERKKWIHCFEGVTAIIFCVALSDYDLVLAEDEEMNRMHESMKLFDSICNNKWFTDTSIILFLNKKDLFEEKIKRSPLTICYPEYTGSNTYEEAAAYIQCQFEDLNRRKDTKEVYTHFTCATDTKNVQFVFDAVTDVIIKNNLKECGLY
# * = called active by the depositor. Some of the compounds tested; rates above refer to the full screens.
GIV Gai3 FP | SMILES
101 | CCC(=O)Nc1cccc(-c2noc(C3CCCN(C(=O)c4sccc4C)C3)n2)c1 (stereo not given)
115 | O=C(Cn1cnc2ccccc2c1=O)OCCCN=C1NS(=O)(=O)c2ccccc21
101 | COc1cccc(C2C3=C(Nc4ncnn42)c2ccccc2OC3c2ccc(SC)cc2)c1 (stereo not given)
117 | CCN1C=C(c2ccc3ccccc3n2)C(C#N)c2ccccc21 (stereo not given)
106 | Cc1ccccc1Nc1nc2nonc2nc1Nc1c(C)n(C)n(-c2ccccc2)c1=O
97 | Cc1nn(C)c(C)c1S(=O)(=O)N1CCOc2ccc(COCc3ccccc3F)cc2C1
109 | O=C(Nc1ccc(S(=O)(=O)Nc2ncccn2)cc1)c1ccco1
109 | CCOC(=O)c1sc2nc3c(c(-c4cccs4)c2c1N)CCCCC3
105 | CC1=C(c2ccc(F)cc2)S(=O)(=O)N=C1N1CCCN(C(=O)NC(C)(C)C)CC1
135 | CC1(C)CC(=O)c2cc(C(=O)NCCCN3CCOCC3)c(=O)n(-c3ccc(Cl)cc3)c2C1
105 | NS(=O)(=O)c1ccc(CCNC(=O)c2nc(-c3ccc(N4CCCCC4)cc3)no2)cc1
95 | C=CCn1c(SCC(=O)N(C)c2ccccc2)nc2c([nH]c3ccccc32)c1=O
115 | O=C1/C(=C\c2ccco2)SC(=S)N1CN1CCN(C(c2ccccc2)c2ccccc2)CC1
113 | CCOC(=O)C1=C(C(=O)OCC)SC(=C2C(=S)C(C)(C)N(C(=O)c3ccccc3)c3c(OCC)cccc32)S1
105 | CCOc1cccc(C2CC(=O)Nc3c2cc(Br)c2ccccc32)c1 (stereo not given)
110 | COCCCNC(=O)CSc1nc2ccccc2c(=O)n1CCCC(=O)NCCc1ccc(OC)c(OC)c1
130 | CCN1C(=O)c2cccc3c(NC(=O)c4ccc(S(=O)(=O)N(C)C)cc4)ccc1c23
100 | O=C1c2c(Cl)c(Cl)c(Cl)c(Cl)c2C(=O)N1C1C(=O)N(c2ccc(Cl)cc2)C1c1cccs1 (stereo not given)
103 | Nc1c(C(=O)NCc2ccccc2)sc2nc3c(c(-c4ccco4)c12)CCC3
110 | Cc1nc(N2CCN(c3ccccn3)CC2)c2c(C)c(C(=O)Nc3ccc([N+](=O)[O-])cc3C)sc2n1
108 | COc1ccc2c(c1)c(=O)c1ccccc1n2CC(=O)Nc1cccc(C(F)(F)F)c1
106 | Cc1c(C(=O)N2CCN(c3ccc([N+](=O)[O-])cc3)CC2)sc2ncn(CC(=O)N3CCCCC3)c(=O)c12
99 | Cc1noc(C)c1S(=O)(=O)N1CCCC1c1cc(C(C)C)on1 (stereo not given)
104 | CCOC(=O)N1CCN(C(=O)c2ccc(N3CC4CC(C3)c3cccc(=O)n3C4)c(NC(=O)c3cccnc3)c2)CC1 (stereo not given)
116 | COc1ccc(-n2c(=S)[nH]c3cc(C(=O)Nc4cc(C(N)=O)ccc4OC)ccc3c2=O)cc1
107 | COc1ccc(CC(=O)Nc2ccc(-c3ccc4ccccc4n3)cc2)cc1
104 | O=C1c2ccccc2-c2cc(Cl)nc3ccc(Cl)c1c23
105 | Cc1ccc(C2=Nc3cccnc3N(CC(=O)NCCc3ccc(Cl)cc3)C(=O)C2)cc1C
107 | CN(C)c1ccc(C(O)P(=O)(c2ccccc2)c2ccccc2)cc1 (stereo not given)
99 | O=C(Cn1c(=O)oc2cc(Cl)ccc21)Nc1nccs1
116 | CC(C)(C)C1CC=C2C(C#N)=C(N)C(C#N)(C#N)C(c3c[nH]c4ccccc34)C2C1 (stereo not given)
107 | Cc1ccc(NC(=O)/C(=C/c2ccc3c(c2)OCO3)NC(=O)c2ccc(Br)cc2)cc1
104 | CCOC(=O)C1=C(C)NC2=C(C(=O)C(C(=O)OCC)C(c3ccccc3OC)C2)C1c1sccc1C (stereo not given)
99 | Cc1cc2nnc(SCC(=O)Nc3c(Cl)cccc3Cl)n2c2ccccc12
98 | O=C(NCc1c(-c2ccc(F)cc2)nc2n1CCS2)C1CCCC1
107 | Cc1ccc(S(=O)(=O)N(CC(O)Cn2c3ccccc3c3ccccc32)c2ccccc2I)cc1 (stereo not given)
110 | O=C(C1CCN(c2ncnc3c2oc2ccccc23)CC1)N1CCN(c2ccccc2Cl)CC1
102 | CCCS(=O)(=O)N1CCCC1c1c(C)noc1CC (stereo not given)
108 | Cc1ccc(C(C2=C(O)CC(C)(C)CC2=O)C2C(=O)CC(C)(C)CC2=O)cc1 (stereo not given)
108 | Cc1nnc2n1N=C(c1ccc(Cl)cc1)CS2
107 | Cc1[nH]n(-c2ccccc2)c(=O)c1C(=O)c1ccc(Cl)cc1
112 | CCc1ccc(-n2c(N)c(C(N)=O)sc2=S)cc1
106 | Cc1nnc(-c2c(C)[nH]c(C)c2S(=O)(=O)NCCN2CCCCC2C)o1 (stereo not given)
111 | O=C(N/N=C/c1ccc(Cl)cc1Cl)C1C(c2ccccc2)C(C(=O)N2CCOCC2)C1c1ccccc1 (stereo not given)
115 | Cc1nnc(N2C(=O)C(=O)/C(=C(/O)c3ccccc3)C2c2ccccc2)s1 (stereo not given)

# By substructure, those above containing bromine
GIV Gai3 FP | SMILES
105 | CCOc1cccc(C2CC(=O)Nc3c2cc(Br)c2ccccc32)c1 (stereo not given)
107 | Cc1ccc(NC(=O)/C(=C/c2ccc3c(c2)OCO3)NC(=O)c2ccc(Br)cc2)cc1

# Going on with the list:
GIV Gai3 FP | SMILES
114 | FC(F)(F)c1cc(Cl)c2nc(-c3ccccc3)c(-c3ccccc3)nc2c1
109 | O=C1CSC(c2ccccc2Br)N1c1cccc(C(F)(F)F)c1 (stereo not given)
107 | O=C(Nc1ccccc1Br)c1cc(S(=O)(=O)N2CCN(c3ccccc3F)CC2)ccc1F
104 | Cc1nn(-c2nc3ccccc3[nH]2)c2c1C(c1ccccc1Br)CC(=O)N2 (stereo not given)
105 | CCC(CC(C)C)CC(C)C1CCC2C3CC=C4CC(OC(=O)c5cccnc5)CCC4(C)C3CCC12C (stereo not given)
111 | COc1ccc(N2C(=O)C3ON(C4SC(=S)N(C)C4(C)C)C(c4ccc([N+](=O)[O-])cc4)C3C2=O)cc1 (stereo not given)
103 | CCc1ccc(NC(=O)Cn2cc(-c3nnc(CN4CCCCC4)o3)c3ccccc32)cc1
107 | COc1ccc(OC)c(-n2c(=S)[nH]c3cc(C(=O)Nc4ccc(OC)c(Cl)c4)ccc3c2=O)c1
103 | COc1cc(C2C(C(=O)N3CCOCC3)=C(C)NC3=C2C(=O)CC(C)(C)C3)cc(Br)c1OC (stereo not given)
113 | CCCC(=O)N1c2c(C)cc(C)cc2-c2c(ssc2=S)C1(C)C
26* | CCN(CC)c1ccc(/C=C2\SC(=S)N(c3c(C)n(C)n(-c4ccccc4)c3=O)C2=O)cc1
106 | COc1cccc(N2CCN(C(=O)Cn3ccc4c(SCc5ccc(F)cc5)nccc43)CC2)c1
101 | CCc1ccc(S(=O)(=O)N2CCCC2c2cc(CC)no2)cc1 (stereo not given)
102 | CCc1csc(C2CCCN(C(=O)NC(C)(C)C)C2)n1 (stereo not given)
99 | Cc1ccc(N2CC(C(=O)N3CCN(c4ncnc5c4nnn5-c4ccc(C)cc4)CC3)CC2=O)cc1 (stereo not given)
97 | CC(C)NC(=O)CCn1c(=O)c2ccccc2n2c(=O)n(Cc3c(F)cccc3Cl)nc12
106 | Cn1nnc2cc(-c3noc(-c4cn(-c5ccccc5)nc4-c4ccccc4)n3)ccc21
106 | O=c1[nH]c(SCc2ccc(Cl)cc2)nc2c1CN(Cc1ccc(F)cc1)CC2
108 | O=c1oc2ccc3ccccc3c2cc1-c1csc(Nc2ccc(Oc3ccc4ccccc4c3Cl)c(Cl)c2)n1
104 | Clc1ccc(C2N(Cc3ccccc3)CCN2Cc2ccccc2)cc1Cl
100 | CN(C)S(=O)(=O)NCc1nc2cccnc2n1C1CCCCC1
98 | O=C(NCc1ccccc1)c1ccccc1CN1C(=O)C2CCCN2C(=O)c2ccccc21 (stereo not given)
105 | COc1ccccc1N1CCN(C(=O)CSc2nc3ccccc3c(=O)n2NC(=O)c2ccccc2)CC1
115 | COc1cccc(NC(=O)CSc2nc3ccccc3c(=O)n2CCC(=O)NCCc2ccc(OC)c(OC)c2)c1
110 | CC(O)Cn1c(=O)c2c(nc(Br)n2Cc2ccccc2)n(C)c1=O (stereo not given)
104 | CCn1c(C)c(-c2nc(C3CC3)no2)c(S(=O)(=O)N2CCOCC2)c1C
106 | C#CCSc1c(CCCC)cnc2c1c(=O)n(C)c(=O)n2C
107 | CCc1ccc(S(=O)(=O)Nc2ccc3oc4c(c3c2)CC(C(C)(C)C)CC4)cc1 (stereo not given)
109 | O=C1CN(Cc2ccccc2F)S(=O)(=O)c2ccccc2N1Cc1cccc(F)c1
106 | CSc1sc(C)cc1C1C(C(=O)Nc2ccc(Br)cn2)=C(C)NC2=C1C(=O)CCC2 (stereo not given)
107 | CN(C)c1nc(NCCOC23CC4CC(CC(C4)C2)C3)nc(OCC(F)(F)F)n1
102 | COc1cccc(CN2CCCC2c2cc(C(C)C)on2)c1O (stereo not given)
100 | O=C(NC1CC1)C1(c2cccc(C(F)(F)F)c2)CC1
103 | O=C(c1ccc(-c2nc(-c3ccc(F)cc3)no2)cc1)N1CCOCC1
111 | CCOC(=O)c1[nH]c2ccc(F)cc2c1NC(=O)CNc1nncs1
102 | c1nc2c(c(N3CCCCC3)n1)CCC2
101 | C=CCNC(=O)C1CCCN1C(=O)c1ccc(NS(=O)(=O)c2ccc3c(c2)CCCC3)cc1 (stereo not given)
104 | CCOc1cc(C2C(C(=O)OC)=CN(Cc3ccc(Cl)cc3)C=C2C(=O)OC)cc([N+](=O)[O-])c1O
106 | CCn1cnc2c(-c3ccc(OC)cc3)csc2c1=O
108 | Cc1nc(N2CCN(Cc3ccc4c(c3)OCO4)CC2)c2c(C)c(C)sc2n1
112 | CCCCCCCCCCCCCC(=O)OC1CCC2(C)C(=CCC3C2CCC2(C)C(C(C)CCCC(C)C)CCC32)C1 (stereo not given)
105 | Cc1ccc(-c2csc(SCc3noc(CCC(=O)Nc4nccs4)n3)n2)cc1
102 | Cn1c(=O)c2c(nc(N3CCCCC3)n2CC(=O)C23CC4CC(CC(C4)C2)C3)n(C)c1=O
102 | CCOc1ccccc1N(C)C(=O)c1cc(S(=O)(=O)NCc2ccccc2Cl)ccc1F
101 | CCOC(=O)c1sc2nc(CC(=O)OC)nc(NCc3ccccc3OC)c2c1C

# Next section; it opens with the seven that closed the last part.
GIV Gai3 FP | SMILES
106 | CCn1cnc2c(-c3ccc(OC)cc3)csc2c1=O
108 | Cc1nc(N2CCN(Cc3ccc4c(c3)OCO4)CC2)c2c(C)c(C)sc2n1
112 | CCCCCCCCCCCCCC(=O)OC1CCC2(C)C(=CCC3C2CCC2(C)C(C(C)CCCC(C)C)CCC32)C1 (stereo not given)
105 | Cc1ccc(-c2csc(SCc3noc(CCC(=O)Nc4nccs4)n3)n2)cc1
102 | Cn1c(=O)c2c(nc(N3CCCCC3)n2CC(=O)C23CC4CC(CC(C4)C2)C3)n(C)c1=O
102 | CCOc1ccccc1N(C)C(=O)c1cc(S(=O)(=O)NCc2ccccc2Cl)ccc1F
101 | CCOC(=O)c1sc2nc(CC(=O)OC)nc(NCc3ccccc3OC)c2c1C
112 | CCOc1ccc2c(c1)C1=C(SC(C(=O)OC)=C(C(=O)OC)C13SC(C(=O)OC)=C(C(=O)OC)S3)C(C)(C)N2
105 | O=C1CC(c2cccc3ccccc23)c2ccc3ccccc3c2N1 (stereo not given)
110 | CC1(C)SC(=S)N(/N=C/c2ccccc2)C1N(O)C(=O)Nc1ccccc1 (stereo not given)
115 | CCCN(CCC)CC(O)CN(c1ccccc1OC)S(=O)(=O)c1ccc(C)cc1 (stereo not given)
104 | CC(C)Cn1c2c(c(O)c(C(=O)Nn3c(Cc4ccccc4)nc4ccccc4c3=O)c1=O)CCCC2
101 | CCOC(=O)c1c(NC(=O)CSc2nnc(CNC(=O)c3ccccc3F)n2C)sc2c1CCCCC2
112 | COC(=O)c1nnn(-c2nonc2N)c1CN1CCCC1
102 | O=C(NCCC1=CCCCC1)C1CCN(c2cncnc2N2CCOCC2)CC1
106 | CCOC(=O)c1ccc(-n2c(=S)sc3c2nc(SCC(=O)Nc2ccc(OC)cc2OC)n2c4ccccc4nc32)cc1
106 | CCCS(=O)(=O)N1CCCN(C2=NS(=O)(=O)C(c3ccc(F)cc3)=C2C)CC1
102 | C=CCOc1ccc(C2CC(=O)Nc3c2c(C)nn3-c2ccc3nnc(C)n3n2)cc1OCC (stereo not given)
107 | CC(C)Oc1ccc(C2C3=C(CC(C)(C)CC3=O)NC3=C2C(=O)CC(C)(C)C3)cc1
97 | CCn1ccc(-c2nc(-c3oc4ccc(OC)cc4c3C)no2)n1
109 | O=C1CC(c2cccc(Br)c2)c2c(ccc3ccccc23)N1 (stereo not given)
108 | O=C(Nc1cnc2oc(-c3ccccc3)nn2c1=O)c1ccc(F)cc1

# Gathered by group, the entries above with a tert-butyl group (4)
GIV Gai3 FP | SMILES
105 | CC1=C(c2ccc(F)cc2)S(=O)(=O)N=C1N1CCCN(C(=O)NC(C)(C)C)CC1
116 | CC(C)(C)C1CC=C2C(C#N)=C(N)C(C#N)(C#N)C(c3c[nH]c4ccccc34)C2C1 (stereo not given)
102 | CCc1csc(C2CCCN(C(=O)NC(C)(C)C)C2)n1 (stereo not given)
107 | CCc1ccc(S(=O)(=O)Nc2ccc3oc4c(c3c2)CC(C(C)(C)C)CC4)cc1 (stereo not given)

# Carrying on:
GIV Gai3 FP | SMILES
105 | Cn1nnc2c(Nc3ccc(F)cc3F)ncnc21
104 | COCCCNC1=NCCNC12CCN(S(=O)(=O)c1ccc(F)cc1)CC2
104 | Cc1cccc(N2CCN(C(=O)c3sc4ncccc4c3-n3cccc3)CC2)c1
112 | COc1cc(OC)cc(C(=O)Nc2cc(C(=O)N(C)Cc3ccccc3)ccc2N2CC3CC(C2)c2cccc(=O)n2C3)c1 (stereo not given)
108 | CC(C)c1cc(C2CCCN2Cc2cc(Cl)ccc2O)on1 (stereo not given)
111 | C=CCN1C(=O)C2(Oc3ccc(Br)cc3C3CC(c4ccc(OC)cc4)=NN32)c2ccccc21 (stereo not given)
106 | CC(C)c1cc(C2CCCN2C(=O)Nc2ccccc2Br)no1 (stereo not given)
108 | CCOC(=O)CNC(=O)c1cc2c(n(-c3ccc(C)cc3)c1=O)CCCC2=O
